# T cruzi inh: inhibitors of intracellular T. cruzi growth, primary screen, luminescence, NIH3T3 host cells | AID 1885, 2009 | T. cruzi beta-gal in NIH3T3, 90 h | 300,000 tested, 1.4% active | inhibition, % (concentration not given with the values);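 active means mean inhibition across valid replicates above about 55%, limit read from the data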;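 further: signal also drops with host cell toxicity which is not excluded here; 0% = plate median of DMSO wells and 100% = zero luminescence signal; higher percent means less beta-gal luminescence so fewer parasites; stock transfer was 50 nL into about 50 µL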
# LANA-H2B inh: blockers of LANA interaction with H2A/H2B – biochemical, FP readout, HTS, primary screen; Protein LANA1 (Human herpesvirus 8 type P (isolate GK18)), Q9QR71; cell-free LANA-H2A/H2B peptide, fluorescence polarization; inhibition, % (test concentration not listed); 320,000 tested, 0.6% active; AID 2629, 2010; in the data active means inhibition mostly above about 10%, no sharp cut-off; inactive means mostly below about 6.7%;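 further: stock transfer was 7.5 nL into about 10 µL; 0% = median of vehicle wells and 100% = median of positive control wells; one replicate is shown; the record names a cut of 25% in any replicate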
# Beta2AR agonist: beta2AR agonists driving receptor internalization, primary screen, cell-based, FAP fluorogen, flow cytometry. Am2.2-beta2AR cells; reference of the scale not given here. response, % (test concentration not listed). 340,000 tested, 0.43% active;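 active means response above a set limit, near 3 SD of response in nonfluorescent compounds, cut at about 42% in these data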;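 further: stock transfer was 100 nL into about 11 µL; a reference agonist was the positive control; negative values mostly stem from fluorescent compounds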
# Target sequence (P07550 whole entry, looked up): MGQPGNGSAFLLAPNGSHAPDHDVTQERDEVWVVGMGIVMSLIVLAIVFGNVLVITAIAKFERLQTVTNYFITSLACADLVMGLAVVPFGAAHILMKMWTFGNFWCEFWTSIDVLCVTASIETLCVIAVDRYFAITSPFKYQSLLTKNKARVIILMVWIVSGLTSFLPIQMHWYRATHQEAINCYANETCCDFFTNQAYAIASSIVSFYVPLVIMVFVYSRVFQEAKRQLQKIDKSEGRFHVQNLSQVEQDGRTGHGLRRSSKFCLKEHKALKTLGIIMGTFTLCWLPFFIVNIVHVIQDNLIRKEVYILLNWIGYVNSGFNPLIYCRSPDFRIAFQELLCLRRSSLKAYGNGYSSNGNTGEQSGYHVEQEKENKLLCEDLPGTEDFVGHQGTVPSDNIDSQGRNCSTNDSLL
# A1 inh: caspase 3/7 activation in MEF A1-2A-BIM cells, primary screen, A1 inhibitor project, cell-based, luminescence, HTS; Caspase-Glo 3/7 luminescence, 3 h; percent of clofoctol response, vehicle zero; caspase activation, % (test concentration not listed); 330,000 tested, 0.066% active; AID 2462, 2010;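 active means over half of replicate activation scores above 10%, or exactly half above 10 with the replicate mean above 10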;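 further: wells of about 30 µL received 50 nL stock; many hits fall short of the cut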
# ALR inh: inhibitors of human ALR sulfhydryl oxidase, primary screen, biochemical, H2O2 detection, HRP-luminol luminescence, single point | purified ALR, DTT oxidation | FAD-linked sulfhydryl oxidase ALR (Homo sapiens), P55789 | 290,000 tested, 3.8% active | AID 485317, 2010 | inhibition, % (concentration not given with the values);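 active means mean and each replicate at 75% or more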;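 further: stock transfer was 7.5 nL into about 7.5 µL; 0% = neutral wells and 100% = wells with inactivated enzyme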
# Target sequence (P55789 whole entry, looked up): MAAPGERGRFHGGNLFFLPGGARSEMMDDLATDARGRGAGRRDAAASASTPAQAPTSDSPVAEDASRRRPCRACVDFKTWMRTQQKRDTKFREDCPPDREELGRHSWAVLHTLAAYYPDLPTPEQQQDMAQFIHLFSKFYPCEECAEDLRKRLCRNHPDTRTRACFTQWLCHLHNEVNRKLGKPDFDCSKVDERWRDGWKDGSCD
# Ecoli rRNA inh: reduced GFP signal of wild-type E. coli, primary screen, bacterial rRNA inhibitor project, GFP/RFP fluorescence, OD600, single point; E. coli WT GFP vs humanized-ribosome RFP mutants, 24 h; hits give low values; DMSO median 0, no signal -100; GFP signal change (wild-type ribosome), % (no concentration beside the values); 350,000 tested, 1.6% active;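 active means significant combined selectivity score with lowered wild-type GFP, culture density cut under 30%, mutant RFP and density less affected; inactive means any of these conditions unmet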; further: one replicate is shown; some compounds called inactive have numbers as strong as hits
# Calb FLC: C. albicans growth inhibition with fluconazole, primary screen, CaCi-2 strain, Alamar Blue fluorescence. C. albicans CaCi-2 (fluconazole-resistant clinical isolate) + fluconazole, 48 h. growth inhibition, % (concentration not given with the values). 300,000 tested, 0.57% active;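 active means most replicates above 75%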;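 further: all wells also contain fluconazole at 8 µg/ml as a sub-toxic cotreatment; 0% = median of DMSO wells and 100% = median of geldanamycin control wells; wells of about 8 µL received 7.5 nL stock; the first replicate is given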
# Beta apoptosis: inhibitors of cytokine-induced beta cell apoptosis, primary screen, luminescence; AID 435005, 2010; 300,000 tested, 0.8% active; INS-1E cytokine-induced death, ATP luminescence, 48 h; percent of positive-control rescue, neutral wells zero; protection from apoptosis, % (test concentration not listed);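 active means all replicates at 75% or more, or half of them and the mean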;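 further: 0% = cytokine-treated negative control wells and 100% = positive control rescue; higher means more ATP so stronger rescue from cytokine killing; wells of about 40 µL received 100 nL stock; the first replicate is given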
# Ecoli rRNA inh OD600: further read-out of Ecoli rRNA inh, marked with its call; OD600 change, %; measured here: OD600 growth;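 optical density of the mix in the first replicate; 0 = DMSO median and -100 = no signal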
# Ecoli rRNA inh RFP: second read-out of Ecoli rRNA inh, no call of its own (marks repeat the call); RFP signal change, %; measured here: RFP humanized mutant strains;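 first replicate; 0 = DMSO median and -100 = no signal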
# Numbers without * were called inactive; . = not tested or not shown. Only part of the results is shown, so the mix of outcomes need not match the whole.
# Below each compound – T cruzi inh	LANA-H2B inh	Beta2AR agonist	A1 inh	ALR inh	Ecoli rRNA inh	Ecoli rRNA inh OD600	Ecoli rRNA inh RFP	Calb FLC	Beta apoptosis
CC1=C(C#N)CCC(=O)N1Cc1c(F)cccc1Cl
 : -6	6.3	8	-0.2	-12	17	10	-0.2	-11	-4
CC(=O)N1CCN(S(=O)(=O)c2cccc(C(=O)NCCC3=CCCCC3)c2)CC1
 : -5	.	-6	1.8	.	2	14	-2.3	0	5
CC(C)[C@H](NC(=O)c1ccccc1F)C(=O)NC1CCCCCCC1
 : .	-3.1	8	1.6	-7	.	.	.	.	-1
CCOC(=O)N1CCN(S(=O)(=O)c2ccc([N+](=O)[O-])cc2)CC1
 : 23	0.8	2	0.0	-13	13	18	2.7	34	-2
CN(C)c1oc(-c2ccccc2Cl)nc1P(=O)(c1ccccc1)c1ccccc1
 : 14	1.4	-1	0.4	3	.	.	.	10	5
N#Cc1c(-c2ccccc2)c(-c2ccccc2)n(Cc2ccco2)c1NC(=O)c1cccs1
 : 32	-0.2	-3	1.4	-5	.	.	.	2	.
N#Cc1cc(-c2ccc(Cl)cc2)cn(Cc2c(Cl)cccc2Cl)c1=O
 : -22	-0.2	-14	-0.5	-6	.	.	.	13	13
CC(CCc1ccco1)NC(=O)c1cc2c(-c3ccccc3F)nn(C)c2s1 (stereo not drawn)
 : 29	-0.3	1	0.3	-1	-2	-2	14	14	7
CCC1(C)Cc2c(sc3nc(SC)[nH]c(=S)c23)CO1 (stereo not drawn)
 : -7	-8.9	.	1.1	.	.	.	.	18	.
Cc1ccccc1OCC(=O)Nc1ccc2c(c1)COC2=O
 : -12	1.0	0	-0.4	-2	.	.	.	26	2
CCOC(=O)c1ccc(N2C(=O)CC(N(Cc3ccc4c(c3)OCO4)C(=O)Nc3ccccc3)C2=O)cc1 (stereo not drawn)
 : 18	-2.0	0	1.1	-9	-11	-20	8.1	7	-1
CC12CCC(C(=O)NCc3ccccc3Cl)(OC1=O)C2(C)C (stereo not drawn)
 : -4	5.0	-8	0.9	-24	4	1	-2.1	-4	-5
Cc1ccc(CNC(=O)CCCc2cn(C)c3ccccc23)cc1
 : 14	-7.2	-3	0.5	-5	7	16	-0.3	0	-9
COCCNC(=O)CN1C(=O)/C(=C/c2ccccc2)Oc2ccc(C(C)(C)C)cc21
 : 39	-0.1	-3	-0.3	-8	13	14	0.8	1	-2
CCN(C(=O)CSc1nnnn1-c1cc(C)ccc1OC)C1CCS(=O)(=O)C1 (stereo not drawn)
 : -2	2.4	2	-0.5	-22	.	.	.	-4	-2
O=C(COc1ccc(Cl)cc1)Nc1ccc(Cc2ccncc2)cc1
 : 31	0.1	-13	-0.7	-3	.	.	.	22	.
Cc1cc(C)c(C2C3=C(Nc4c2c(C)nn4-c2ccccn2)c2ccccc2C3=O)c(C)c1 (stereo not drawn)
 : 12	-2.3	70*	0.3	-1	.	.	.	29	25
CN(C)/C=C1\SC(=S)N(c2ccc(F)cc2)C1=O
 : 0	-3.7	6	0.3	-3	7	8	6.0	-4	.
Cc1nnc(SC(C(=O)Nc2ccc(Cl)c([N+](=O)[O-])c2)c2ccccc2)[nH]c1=O (stereo not drawn)
 : -4	-1.2	1	1.4	17	-12	-14	-2.8	8	.
COc1ccc(O)c(C(=O)c2cnc3onc(C)c3c2)c1
 : -8	1.7	0	-0.9	7	.	.	.	13	-2

# Copied from the results shown for reference:
# Below each compound – T cruzi inh	LANA-H2B inh	Beta2AR agonist	A1 inh	ALR inh	Ecoli rRNA inh	Ecoli rRNA inh OD600	Ecoli rRNA inh RFP	Calb FLC	Beta apoptosis
N#Cc1cc(-c2ccc(Cl)cc2)cn(Cc2c(Cl)cccc2Cl)c1=O
 : -22	-0.2	-14	-0.5	-6	.	.	.	13	13
CC(CCc1ccco1)NC(=O)c1cc2c(-c3ccccc3F)nn(C)c2s1 (stereo not drawn)
 : 29	-0.3	1	0.3	-1	-2	-2	14	14	7
CCC1(C)Cc2c(sc3nc(SC)[nH]c(=S)c23)CO1 (stereo not drawn)
 : -7	-8.9	.	1.1	.	.	.	.	18	.
Cc1ccccc1OCC(=O)Nc1ccc2c(c1)COC2=O
 : -12	1.0	0	-0.4	-2	.	.	.	26	2
CCOC(=O)c1ccc(N2C(=O)CC(N(Cc3ccc4c(c3)OCO4)C(=O)Nc3ccccc3)C2=O)cc1 (stereo not drawn)
 : 18	-2.0	0	1.1	-9	-11	-20	8.1	7	-1
CC12CCC(C(=O)NCc3ccccc3Cl)(OC1=O)C2(C)C (stereo not drawn)
 : -4	5.0	-8	0.9	-24	4	1	-2.1	-4	-5
Cc1ccc(CNC(=O)CCCc2cn(C)c3ccccc23)cc1
 : 14	-7.2	-3	0.5	-5	7	16	-0.3	0	-9
COCCNC(=O)CN1C(=O)/C(=C/c2ccccc2)Oc2ccc(C(C)(C)C)cc21
 : 39	-0.1	-3	-0.3	-8	13	14	0.8	1	-2
CCN(C(=O)CSc1nnnn1-c1cc(C)ccc1OC)C1CCS(=O)(=O)C1 (stereo not drawn)
 : -2	2.4	2	-0.5	-22	.	.	.	-4	-2
O=C(COc1ccc(Cl)cc1)Nc1ccc(Cc2ccncc2)cc1
 : 31	0.1	-13	-0.7	-3	.	.	.	22	.
Cc1cc(C)c(C2C3=C(Nc4c2c(C)nn4-c2ccccn2)c2ccccc2C3=O)c(C)c1 (stereo not drawn)
 : 12	-2.3	70*	0.3	-1	.	.	.	29	25
CN(C)/C=C1\SC(=S)N(c2ccc(F)cc2)C1=O
 : 0	-3.7	6	0.3	-3	7	8	6.0	-4	.
Cc1nnc(SC(C(=O)Nc2ccc(Cl)c([N+](=O)[O-])c2)c2ccccc2)[nH]c1=O (stereo not drawn)
 : -4	-1.2	1	1.4	17	-12	-14	-2.8	8	.
COc1ccc(O)c(C(=O)c2cnc3onc(C)c3c2)c1
 : -8	1.7	0	-0.9	7	.	.	.	13	-2

# Remaining list, next part
# Below each compound – T cruzi inh	LANA-H2B inh	Beta2AR agonist	A1 inh	ALR inh	Ecoli rRNA inh	Ecoli rRNA inh OD600	Ecoli rRNA inh RFP	Calb FLC	Beta apoptosis
O=C1C2C3C=CC([C@@H]2C(=O)N1Cc1cccnc1)C31CC1 (stereo partly drawn)
 : -4	-4.7	-3	0.4	4	.	.	.	1	-5
CC1(C)CC(=O)N(CC(=O)O)c2ccccc2S1(=O)=O
 : -11	-0.3	5	0.1	-20	9	14	-1.3	0	0
CSc1oc(-c2ccco2)nc1S(=O)(=O)c1ccccc1
 : -11	0.1	-13	0.1	-2	0	1	1.5	0	-5
Cc1ccc2nc(SCC(=O)O)nc(C)c2c1
 : -1	1.9	0	0.3	-2	.	.	.	-3	0
O=C(C[C@H]1C/C=C\C[C@H](Cc2ccc(F)cc2)C(=O)OCCNC1=O)NCCO
 : .	-1.3	2	0.3	-1	17	17	3.4	.	-8
Cc1cc(C)c(NC(=O)CNC(=O)CSc2nnc(N)s2)c(C)c1
 : -11	-1.1	-1	-0.2	-2	6	8	-1.2	2	-5
CCOc1ccc(NC(=O)CN(C)C(=O)C2CSC3(C)CCC(=O)N23)cc1OCC (stereo not drawn)
 : .	-1.4	0	0.5	-13	4	15	-2.2	.	1
Cc1cc2cc(C)c(NCCNC(=O)c3cccc(F)c3)nc2cc1C
 : 2	-3.9	-6	-0.1	-2	-24	-19	13	-15	-1
COc1ccc2oc3cc(C)[n+]([O-])c(-c4ccc(Br)cc4)c3c2c1
 : 16	11	-10	-0.1	5	.	.	.	0	-12
O=C(CNC(=O)c1ccc(Cl)cc1Cl)OCC(=O)N1CCCC1
 : .	-1.9	1	-0.5	0	11	10	-0.8	.	-1

# Bioassay records from PubChem.
